# Source: PubChem BioAssay
# Mtb hypoxia inh – inhibitors of hypoxia-regulated fluorescent reporter in Mycobacterium tuberculosis. M. tuberculosis hypoxia-regulated fluorescent reporter, fluorescence. fluorescence inhibition, % (concentration not given with the values). 300,000 tested, 0.1% active;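 active = 35 to 45% if threefold the growth effect, above 45% if 1.5-fold the growth effect; inactive = the rest, general growth blockers included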;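 note: wells of about 50 µL received 100 nL stock; 0% = vehicle wells and 100% = reference inhibitor wells; whole bacteria with a GFP reporter of the hypoxia response; strong numbers were not always called active; many hits fall short of the cut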
# PrP UTR inh – suppresses PrP 5' UTR mRNA reporter expression; cell-based PrP 5' UTR mRNA reporter, plate reader; inhibition, % (no concentration beside the values); 340,000 tested, 0.35% active;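 active = every replicate at 50% or more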;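 note: 0 = median of the neutral control wells; tested in H4 reporter cells; numbers are from one replicate; inactives centre near -14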
# RN4220 kill – kills Staphylococcus aureus RN4220. S. aureus RN4220 growth, OD600, 16 h. inhibition, % (no concentration beside the values). 330,000 tested, 0.33% active. AID 1259311;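 active = z-score of -3 or lower and OD600 up to 0.18 on both plates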;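 note: plate controls were untreated cells for no effect and reference antibiotic for full effect; stock transfer was 100 nL into about 80 µL; one replicate is shown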
# Bead autofluor – counter-screen for toxin protease inhibitors: compound fluorescence | 360,000 tested, 3.1% active | compound autofluorescence counterscreen, microsphere flow cytometry; active compounds read high | fluorescence intensity (no concentration beside the values) | AID 624483;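 active = at least 3 SD above the mean of all compounds, about 16000 in these data; inconclusive = too few beads counted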;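 note: 100 nL of 1 mM stock went into each well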
# ugtP null kill – kills S. aureus RN4220 lacking UgtP | S. aureus RN4220 ugtP deletion, OD600 growth, 16 h; some inactives read as strong as hits | growth inhibition, % (no concentration beside the values) | AID 1259309 | 330,000 tested, 0.54% active;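 active = z-score under -3 and OD600 up to 0.15 on both plates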;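 note: plate controls were untreated wells for no effect and antibiotic for full effect; wells of about 80 µL received 100 nL stock; the first replicate is given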
# BJeLR viability – BJeLR cell viability loss. BJeLR (HRASV12) viability, CellTiter-Glo ATP luminescence, 48 h; reference of the scale not given here. inhibition, % (concentration not given with the values). 300,000 tested, 0.17% active. AID 1554;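 active = replicate mean above 50%; inconclusive = above 50% but judged a plate artefact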;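 note: 50 nL library stock added to about 25 µL; numbers are from one replicate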
# Mtb hypoxia inh growth – recorded beside Mtb hypoxia inh, whose call it bears; growth inhibition, %; measured here: M. tuberculosis growth (absorbance);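 0% = vehicle and 100% = reference antibiotic; read after six days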
# An asterisk follows results filed as active; ? = inconclusive; nt = no result given.
SMILES,Mtb hypoxia inh,Mtb hypoxia inh growth,PrP UTR inh,RN4220 kill,Bead autofluor,ugtP null kill,BJeLR viability
CSc1ccccc1NC(=O)CSc1nnnn1-c1ccccc1SC,9,8,-7,6.2,4278,-3,3
Cc1ccccc1OCCC(=O)Nc1ccc2c(C)cc(=O)oc2c1,5,-5,-29,1.1,6328,2,-5
COc1ccccc1NC(=S)Nc1cccc2cnccc12,2,7,-12,3.4,2530,10,12
CCc1cccc(C)c1NC(=O)C1=C(C(=O)O)CCCC1,6,10,-14,2.4,9305,-1,1
CC1CCN(S(=O)(=O)c2ccc3c(c2)c(=O)c(C(=O)NCc2ccco2)cn3C)CC1,nt,nt,-5,nt,3321,nt,18
O=C(O)c1cc(N/N=C/C=C/c2ccccc2)ccc1Cl,nt,nt,-129,nt,3775,nt,-2
O=C(COc1ccc(Br)cc1F)N1CCN(c2ncccn2)CC1,7,2,-30,-1.5,2459,0,9
COc1cc(/C=N/Nc2nc(C)cc(C)n2)ccc1OC(=O)c1ccco1,nt,nt,-18,nt,2141,nt,3
O=C(CSc1ncnc2ccccc12)Nc1ccc(N2CCOCC2)cc1,3,10,nt,-15,nt,-9,-1
O=S(=O)(c1ccc(F)cc1)N1CN(Cc2ccco2)c2nc3ccccc3nc21,1,-4,-14,-2.3,9623,-10,-4
NC(=O)Cn1cc(/C=N\NS(=O)(=O)c2ccc(Cl)cc2)c2ccccc21,nt,nt,-5,nt,4503,nt,-2
O=[N+]([O-])c1ccc(-c2nn(-c3ccccc3)cc2C=Nn2c(-c3cccs3)n[nH]c2=S)cc1,0,2,nt,2.8,nt,-9,nt
O=C(Cn1nnc2ccccc2c1=O)Nc1ccc(S(=O)(=O)N2CCOCC2)cc1,-4,1,-8,0.1,3759,-2,-3
CCN1CCN(C(=O)CN(c2ccc(C)cc2)S(C)(=O)=O)CC1,6,4,-22,5.3,3249,14,0
Cc1cccc(COc2coc(CN3CCN(C(=O)c4ccco4)CC3)cc2=O)c1,6,3,-22,-1.1,5465,6,-3
COc1cc2c(cc1OC)CN(C(=O)c1cc(=O)c3ccccc3o1)CC2,0,9,-36,-13,2849,-8,32
O=C(c1cc(S(=O)(=O)N2CCOCC2)c(Cl)cc1Cl)N1CCN(S(=O)(=O)c2cccc(F)c2)CC1,-1,7,0,-2.5,3021,-5,nt
C=CCOc1c(Br)cc(CNn2nnnc2N)cc1OC,7,6,4,3.6,2793,11,-11
CCc1ccc(NC(=O)C(C)OC(=O)c2ccc(N3CCCC3)c([N+](=O)[O-])c2)cc1 (stereo not drawn),-7,-15,-10,0.3,2249,14,-1
O=C(COC(=O)c1ccc(-n2cnnn2)cc1)Nc1cc(Cl)ccc1F,5,0,-27,3.7,4467,6,nt
Cc1ccc(C)c(NC(=O)CN2C(=O)CNC2=O)c1,nt,nt,-29,-1.3,4442,2,-4
CC(C)[C@H](NC(=O)OCc1ccccc1)C(=O)OCc1ccccc1,-4,3,-16,4.6,3137,14,-4
COc1ccc(C2c3ccc(O)cc3Oc3ncn4nc(-c5ccncc5)nc4c32)cc1OC (stereo not drawn),5,5,-23,1.0,6395,9,0
COc1ccccc1N1CCN(C(=O)c2cccc(S(=O)(=O)NCc3cccnc3)c2)CC1,-1,2,-19,2.4,3798,5,nt
CCn1nc(/C=C/c2ccccc2)nc2c(=O)n(C)c(=O)nc1-2,16,19,-43,98*,4575,99*,-4
COc1ccccc1/C=C/C(=O)OCC(=O)NC1CCCCCCC1,-1,0,-36,6.3,5739,3,nt
C(=NN=Cc1cccs1)c1cccs1,14,10,nt,10,nt,9,nt
O=C1C2C3CCC(O3)C2C(=O)N1c1cccc(F)c1 (stereo not drawn),-10,-5,nt,2.6,4334,2,-6
COc1nccnc1NS(=O)(=O)c1ccc(NC(=S)NC(=O)c2cccc(F)c2)cc1,14,10,-12,2.2,2675,52,21
CCn1c(=O)cc(SCC(=O)NCCC2=CCCCC2)c2ccccc21,3,9,-22,7.4,2537,-5,0
O=[As](O)(O)c1ccc(N=Nc2ccc(O)cc2)cc1,10,1,-23,-0.5,3946,-1,-4
COc1ccccc1Oc1ccc(NC(=O)Cc2ccccc2)cc1,4,-4,nt,-4.7,5037,2,-2
COc1cccc(-c2nnc(SCC(=O)OC(C)C)n2Cc2ccco2)c1,nt,nt,-9,8.2,2230,-8,-7
CC(C)CC(=O)Nc1ccc([N+](=O)[O-])cc1Cl,7,7,-45,4.2,3394,-1,1
O=C(CCNS(=O)(=O)c1cccc2nsnc12)N1CC(=O)N(CCc2ccccc2)C(=O)C1,2,-5,-17,1.2,21566*,4,3
COC(=O)c1ccc(COC(=O)c2ccc(-n3cnnn3)cc2)o1,-1,0,-10,-3.8,7188,-10,nt
COc1ccc(C(C(=O)NC2CCCCC2)N(C(=O)c2ccccn2)c2cccnc2)cc1 (stereo not drawn),3,5,-15,3.0,4284,5,12
Cc1ccnc(NC(=O)COC(=O)c2ccc(F)cc2F)n1,5,7,-13,7.0,3949,12,13
CC(C)C(C(=O)NC1=NCCS1)c1ccc(Cl)cc1 (stereo not drawn),nt,nt,-7,nt,3501,nt,-4
COc1cc(OC)cc(C(=O)OCC(=O)c2ccc(S(=O)(=O)N3CCCCC3)cc2)c1,0,5,-9,4.5,6582,3,nt
COc1ccc(C(c2nnnn2Cc2cccs2)N2CCN(c3ccccc3)CC2)cc1OC (stereo not drawn),13,10,-8,4.8,4400,3,3
Nc1ccccc1Sc1cc(Cl)nnc1Cl,9,3,-36,1.1,3835,-1,-6
O=c1c2ccccc2nc2n1CCCN2,-5,5,4,5.7,4800,6,8
O=C(NCCN1C(=O)S/C(=C\c2ccc(Cl)c([N+](=O)[O-])c2)C1=O)C1=COCCO1,7,12,-19,3.9,5793,6,19
Cn1cnnc1SCC(=O)Nc1cccc(S(=O)(=O)N2CCCCCC2)c1,4,7,2,9.4,7587,11,-10
CC(C)n1nnnc1SCC(=O)N1CCOCC1,nt,nt,-10,-2.2,4542,-1,0
C/C=C/C=C/C(=O)[C@@H]1[C@@H]([C@]2(C)OC(=O)C(C)=C2O)[C@H]2/C(=C(O)/C=C/C=C/C)C(=O)[C@]1(C)C(=O)C2(C)O (stereo partly drawn),nt,nt,-25,3.8,5458,3,-6
Cc1c(Cl)cccc1NC(=O)c1ncn[nH]1,6,7,-3,-1.6,6074,5,5
COc1cc(/C=N/NC(=O)c2cccc(S(=O)(=O)N3CCOCC3)c2)cc(OC)c1O,nt,nt,28,nt,3740,nt,0
Cc1cc(C(=O)OC(C)C(=O)NC2CCCCC2)c(C)o1 (stereo not drawn),1,11,-24,0.4,4099,-5,nt
CCOC(=O)C=c1sc(=C(C#N)C(=O)NC)n(-c2ccccc2)c1=O,7,6,nt,2.0,nt,6,nt
CS(=O)(=O)Cc1ccc(C(=O)N(CCc2ccccc2)Cc2ccccc2)cc1,2,1,-17,4.9,?,19,8
Cc1cccc2cc(CNC3CCCC3)c(Cl)nc12,10,5,-26,5.4,4134,-5,9
CCC(=O)Nc1ccc(-n2nnnc2SCC(=O)NNC(=O)c2ccco2)cc1,14,2,nt,1.5,nt,2,1
O=C(CN1CCOCC1)Nc1nc(-c2ccc3c(c2)CCN3S(=O)(=O)c2ccccc2)cs1,0,20,-24,4.8,4286,-6,-1
Fc1ccc(-c2nc3ccncc3[nH]2)cc1,-3,13,-16,6.0,9576,3,5
COc1ccc2c(c1)C1(Nc3ccccc3C(=O)N1c1ccccc1)C(=O)N2 (stereo not drawn),6,3,-17,2.5,8327,2,-8
O=C(CSc1nnc(CNC(=O)c2ccccc2)o1)NCc1ccco1,11,3,-7,-0.4,4904,8,3
COC(=O)c1sccc1NC(=O)/C=C/c1ccc(Cl)cc1Cl,0,7,-47,1.1,1971,5,4
CCOC(=O)N1CCN(C(=O)c2cc3c(=O)n4cccc(C)c4nc3s2)CC1,5,1,-13,2.2,3926,0,-6

# 2 entries from above, with two lines to a compound:
# Each structure is followed by: Mtb hypoxia inh | Mtb hypoxia inh growth | PrP UTR inh | RN4220 kill | Bead autofluor | ugtP null kill | BJeLR viability
Cc1cc(C(=O)OC(C)C(=O)NC2CCCCC2)c(C)o1 (stereo not drawn)
→ 1 | 11 | -24 | 0.4 | 4099 | -5 | nt
CCOC(=O)N1CCN(C(=O)c2cc3c(=O)n4cccc(C)c4nc3s2)CC1
→ 5 | 1 | -13 | 2.2 | 3926 | 0 | -6

# (continued)
SMILES,Mtb hypoxia inh,Mtb hypoxia inh growth,PrP UTR inh,RN4220 kill,Bead autofluor,ugtP null kill,BJeLR viability
O=C(O)CCCC(=O)Nc1ccn(-c2ccccc2)n1,8,6,-17,-1.0,3887,11,1
Cn1cnc2c1c(=O)[nH]c(=O)n2Cc1ccccc1,1,1,-14,1.7,3689,1,3
COc1ccccc1-n1c(SC)nc(O)cc1=O,7,9,-15,4.1,5994,12,1
CCCCCCn1c(-c2ccco2)nc2oc3cc(OC)ccc3c(=O)c2c1=O,2,11,-12,29,9611,-13,0
CC(C)(C)C1CCc2c(C(=O)NNC(=O)/C=C/C(=O)O)csc2C1 (stereo not drawn),10,8,-19,2.7,2066,8,-5
COc1ccc(N2CCN(Cc3nc(Cc4cccc(F)c4)no3)C(C)C2)cc1 (stereo not drawn),17,12,-43,6.9,4509,6,-40
O=C(O)c1cccc(S(=O)(=O)N2CCSCC2)c1,-2,1,-8,-3.2,9329,-9,0
CC(CC(=O)N1CCN(C=O)CC1)=NNC(=O)c1ccc(Br)cc1,-9,-9,nt,1.1,nt,1,nt
Cc1ccc(S(=O)(=O)CCC(=O)NCCN2C(=O)S/C(=C\c3ccccc3)C2=O)cc1,14,-1,-5,0.8,2144,-8,0
CN(C)c1nc(OCCNC(=O)COc2ccc(Cl)cc2Cl)nc(N2CCCCC2)n1,2,-11,-5,1.5,11258,-21,-5
Cc1nc2ccc(S(=O)(=O)NCC(=O)N3CCN(c4ccccc4)CC3)cc2s1,-3,2,-18,-8.5,2816,-5,7
NC(=O)C1CCN(C(=O)CN(c2ccc3c(c2)OCCO3)S(=O)(=O)c2ccccc2)CC1,-12,0,-15,-3.0,5170,-1,-5
CCn1c(SCc2nc3cc(OC)c(OC)cc3c(=O)[nH]2)nc2ccccc21,12,1,-9,0.2,3391,8,-1
CC(C)(C)N(NC(=O)c1ccccc1)C(=O)c1ccccc1,3,0,-22,4.3,16121,14,6
CCN(CC)C(=O)CSc1nc(-c2ccco2)cc(C(F)(F)F)c1C#N,3,4,-4,2.7,4514,2,-6
Cc1cc(F)ccc1S(=O)(=O)N1CCCOC1CNC(=O)C(=O)NCc1cccnc1 (stereo not drawn),7,3,-14,0.2,5482,0,-3
COc1ccc(C=NNC(=O)C2(C)NC(C)(C)Cc3ccccc32)cc1 (stereo not drawn),11,11,nt,4.7,nt,16,nt
COc1ccc(/C=N/N2CCN(C3c4ccccc4-c4ccccc43)CC2)cc1O,nt,nt,-23,nt,3664,nt,6
Cc1cc(=O)[nH]c(SCc2cc(Cl)ccc2OC(F)F)n1,11,6,-14,11,3480,-1,-6
CCC(C)NCCOCCOc1ccc(Br)cc1C (stereo not drawn),12,8,-11,1.8,2676,-1,-4
O=C(CCN1CCOCC1)c1ccccc1,7,6,-19,1.4,6935,24,7
O=c1[nH]c(C2CCN(S(=O)(=O)Cc3ccccc3)CC2)nc2c1nnn2Cc1cccc(Cl)c1,-9,3,-25,0.8,4344,-9,-6
Cc1cccc(OCc2nnc(SCC(=O)N(c3ccccc3)C3CCS(=O)(=O)C3)o2)c1 (stereo not drawn),11,6,-8,7.0,3823,5,nt
Cn1c(N)c(C(=O)c2cc(-c3ccccn3)nc3ccccc23)c(=O)[nH]c1=O,-4,-9,-29,4.0,8765,-4,-6
COc1ccc(C(C)=O)cc1CSc1ccc2c(c1)OCCO2,2,-4,-15,7.3,4633,16,-18
c1ccn2c(SCc3ccc4c(c3)OCO4)nnc2c1,2,3,-59,-15,2849,-5,2
